Bioassay records (PubChem BioAssay)
LANA-H2A inh: blocks KSHV LANA binding to histone H2A/H2B | inhibition, % (test concentration not listed) | AID 2629 | cell-free LANA-H2A/H2B peptide, fluorescence polarization | 320,000 compounds, 0.6% hits | Q9QR71; in the data active means inhibition mostly above about 10%, no sharp cut-off; inactive means mostly below about 6.7%;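 further: stock transfer was 7.5 nL into about 10 µL; 0% = median of vehicle wells and 100% = median of positive control wells; one replicate is shown; the record names a cut of 25% in any replicate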
Beta2AR agonist: human beta-2 adrenergic receptor agonism by FAP; 340,000 compounds, 0.43% hits; response, % (test concentration not listed); AID 504454; Am2.2-beta2AR cells, FAP receptor internalization, flow cytometry; reference of the scale not given here;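 active means response above a set limit, near 3 SD of response in nonfluorescent compounds, cut at about 42% in these data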;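 further: stock transfer was 100 nL into about 11 µL; a reference agonist was the positive control; negative values mostly stem from fluorescent compounds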
Target sequence (P07550 whole entry, looked up): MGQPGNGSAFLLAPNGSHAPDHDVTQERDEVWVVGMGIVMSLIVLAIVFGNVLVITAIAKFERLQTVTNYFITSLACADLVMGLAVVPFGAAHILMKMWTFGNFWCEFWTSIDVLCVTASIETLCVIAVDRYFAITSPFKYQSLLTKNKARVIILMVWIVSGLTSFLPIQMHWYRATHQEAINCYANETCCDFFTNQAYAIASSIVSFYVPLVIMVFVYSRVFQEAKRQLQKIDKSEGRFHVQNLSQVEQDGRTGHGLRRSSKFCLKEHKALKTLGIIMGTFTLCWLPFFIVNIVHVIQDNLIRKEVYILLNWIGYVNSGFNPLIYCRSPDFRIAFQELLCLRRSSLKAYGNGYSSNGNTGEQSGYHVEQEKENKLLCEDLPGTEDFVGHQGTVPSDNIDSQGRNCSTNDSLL
FGF22 binding: binders of recombinant human FGF22 by thermal shift | Q9HCT0 | SYPRO orange fluorescence; percent of sucrose octasulfate shift, DMSO zero | calls only at 9.99 µM | 340,000 compounds, 1.5% hits;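 active means melting point raised past a set limit in the mean and every replicate; three in four hits are not shown here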
Target sequence (Q9HCT0 whole entry, looked up): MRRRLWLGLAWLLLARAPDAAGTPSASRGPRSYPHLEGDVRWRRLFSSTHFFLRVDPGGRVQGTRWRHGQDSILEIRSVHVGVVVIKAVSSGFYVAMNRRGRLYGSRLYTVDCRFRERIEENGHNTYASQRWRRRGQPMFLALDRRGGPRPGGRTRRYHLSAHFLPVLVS
Ecoli growth: E. coli growth inhibition. Escherichia coli growth, OD600, 23 h; hits give low values. 330,000 compounds, 0.21% hits. OD600 absorbance (concentration not given with the values);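 active means OD600 absorbance below the run mean of sample wells minus 3.6 SD, in any replicate, cut at about 0.56 in these data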;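 further: stock transfer was 300 nL into about 60 µL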
HNF4A DNA FP: change in binding of human HNF4 alpha to DNA; HNF4a-FITC DNA binding, fluorescence polarization, 1 h; activity change, % at 10 µM; 360,000 compounds, 0.3% hits; in the data active means activity change above about 30%, passing the limit was not always enough;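 further: controls were the assay level and a saturating level of protein; the project sought stronger binding though the title names inhibitors; some compounds called inactive have numbers as strong as hits; positive values seem to mean higher polarization but the record does not say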
ALR H2O2 inh: blocks human ALR sulfhydryl oxidase activity | purified ALR, DTT oxidation, H2O2 HRP-luminol luminescence | inhibition, % (no concentration beside the values) | AID 485317 | 290,000 compounds, 3.8% hits | P55789;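 active means mean and each replicate at 75% or more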;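 further: stock transfer was 7.5 nL into about 7.5 µL; 0% = neutral wells and 100% = wells with inactivated enzyme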
UCH37 inh: blocks the human deubiquitinase UCH37 | Q9Y5K5 | purified proteasome/UCH37, Ub-AMC cleavage fluorescence | inhibition, % (no concentration beside the values) | 330,000 compounds, 0.33% hits;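 active means mean of two replicates above 20%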;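 further: 0% = compound-free wells with enzyme and 100% = wells lacking proteasome; stock transfer was 100 nL into about 20 µL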
Target sequence (Q9Y5K5 whole entry, looked up): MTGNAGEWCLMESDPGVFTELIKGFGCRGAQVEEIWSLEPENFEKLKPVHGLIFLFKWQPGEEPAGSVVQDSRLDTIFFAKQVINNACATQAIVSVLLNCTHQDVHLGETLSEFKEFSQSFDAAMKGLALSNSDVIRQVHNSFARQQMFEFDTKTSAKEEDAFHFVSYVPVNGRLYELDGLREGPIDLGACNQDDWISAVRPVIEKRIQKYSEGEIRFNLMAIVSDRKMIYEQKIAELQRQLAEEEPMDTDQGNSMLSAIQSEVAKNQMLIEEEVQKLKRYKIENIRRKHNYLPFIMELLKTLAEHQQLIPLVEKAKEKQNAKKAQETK
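Schedule: 30 min plus 25 min, room temperature / Material: human UCH37 within purified proteasomes / Technique: AMC fluorescence intensity at 355/460 nm / Buffer or medium: pH 7.4 Tris-HCl (50 mM) with ovalbumin, ATP-MgCl2, DTT / Controls: wells without proteasome as full block, compound-free enzyme plus substrate as uninhibited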
Active calls of the source: *; i = inactive; · = not tested or not shown. A portion of the library. The share of hits here may be higher or lower than overall.

| SMILES | Beta2AR agonist | HNF4A DNA FP | ALR H2O2 inh | Ecoli growth | UCH37 inh | FGF22 binding | LANA-H2A inh |
| --- | --- | --- | --- | --- | --- | --- | --- |
| CSc1cccc(NC(=S)N2CCC(N(C)C3CCCC3)CC2)c1 | -3 | -2.2 | -3 | 0.7 | 4.5 | i | -2.8 |
| O=C(CCCc1nc(-c2ccc(Cl)cc2)no1)NC1CCCCC1 | -3 | 0.8 | 3 | 0.65 | -0.7 | i | -6.0 |
| COc1cccc(CN2CC(C(=O)NCc3ncc(C)[nH]3)CCC2=O)c1 (centres undefined) | -3 | 4.9 | -3 | 0.7 | -1.3 | i | 0.4 |
| Nc1nc(-c2ccco2)nn1C(=O)c1ccc(F)cc1 | 0 | 22 | · | 0.69 | 0.6 | i | · |
| COc1cc(-n2c(C)nc3cccnc32)c(Cl)cc1C(=O)O | 6 | 3.6 | 1 | 0.66 | 1.4 | i | -1.5 |
| O=C(COC(=O)CCC(=O)c1ccc(F)cc1)Nc1nnc(-c2ccccc2)o1 | 1 | 149 | 3 | 0.65 | 0.7 | · | 1.9 |
| CC(C)(C)c1ccc(C(=O)OC/C(O)=C(\C#N)c2nc3ccccc3s2)cc1 | 7 | -1.4 | -7 | 0.72 | 0.5 | i | 8.4 |
| CCn1c(Cc2ccccc2)nnc1SCC(=O)Nc1ccccc1 | 18 | -2.1 | -29 | 0.69 | 2.4 | · | -7.8 |
| CC(O)c1nc2ccccc2n1Cc1ccccc1 (centres undefined) | -1 | 2.7 | -9 | 0.7 | -1.0 | i | -1.1 |
| COc1ccc(S(=O)(=O)N(C)C)cc1NC(=O)COC(=O)CC1CCCC1 | 0 | -0.3 | -3 | 0.71 | 0.9 | i | 2.3 |
| CN1CCN(c2nc3c(c(=O)[nH]c(=O)n3C)n2Cc2ccc([N+](=O)[O-])cc2)CC1 | -4 | -1.2 | -8 | 0.71 | 5.0 | i | 2.4 |
| COCC(C)NC(=O)C(C)N1c2cccc3cccc(c23)S1(=O)=O (centres undefined) | 6 | -0.8 | -37 | 0.63 | -56 | i | 7.8 |
| CC(C)(C)N=C1NN=C(c2ccc(Cl)cc2)CS1 | -6 | 1.5 | 0 | 0.61 | 6.4 | i | 1.0 |
| O=C(Nc1ccccc1)Nc1ccc(Nc2ccccc2)cc1 | 4 | 2.1 | 21 | 0.68 | 1.5 | i | -7.1 |
| CCN(CC)c1ccc(C(=O)O)cc1 | 3 | -2.0 | 37 | 0.67 | 1.1 | · | 2.2 |
| O=C(CCl)Nc1ccc2c(c1)OCO2 | -1 | -0.3 | 3 | 0.7 | 0.8 | i | 0.2 |
| O=C(NCc1ccccn1)c1cc2c(ccc3ccccc32)oc1=O | -4 | 0.1 | 9 | 0.68 | -443 | i | 10 |
| OCC1(Cc2ccccc2F)CCCN(CCc2ccccc2)C1 (centres undefined) | 0 | 4.7 | · | 0.68 | 3.1 | i | 2.6 |
| O=C(NN1C(=O)/C(=C\c2cccnc2)SC1=S)c1ccco1 | -4 | 1.0 | -5 | 0.64 | 14 | i | 3.4 |
| CC1CCCC(NC(=O)COC(=O)CSc2ccc3ccccc3c2)C1C (centres undefined) | 3 | 1.1 | 99* | 0.73 | 0.6 | i | -4.5 |
| O=C(CN1C(=O)NC2(CCCCCC2)C1=O)c1ccc(F)cc1 | 1 | -3.1 | -1 | 0.63 | 0.6 | i | 0.5 |
| CC1CN(c2sc(S(C)(=O)=O)nc2S(=O)(=O)c2ccc(Cl)cc2)CC(C)O1 (centres undefined) | 2 | 4.1 | -1 | 0.67 | 1.2 | i | -0.9 |
| COc1cccc(/C=C/C(=O)N2CCN(c3ccccn3)CC2)c1 | -3 | 4.8 | -13 | 0.69 | -0.3 | i | 4.5 |
| Cc1scc(C(=O)NNC(=S)NCc2ccccc2)c1C | 12 | -1.2 | · | 0.69 | -1.9 | i | -3.9 |
| CC(=O)Nc1c(C)nn(-c2ccc([N+](=O)[O-])cc2)c1C | 10 | 3.5 | 2 | 0.67 | 7.9 | i | -3.8 |
| Oc1c(Cl)cc(Cl)cc1/C=N/NC(=S)NC1CC2C=CC1C2 (centres undefined) | 3 | 0.9 | · | · | · | i | 4.4 |
| CCOC(=O)C1=C(COC(=O)c2ccc(Br)o2)NC(=O)NC1C (centres undefined) | -13 | 0.8 | -9 | 0.7 | 4.1 | i | -2.0 |
| CCCC(=O)Nc1ccc(NC(=O)c2ccccc2F)cn1 | -3 | -1.1 | 0 | 0.62 | 1.1 | i | 2.0 |
| CCOc1ccc(CNC(=O)C2CCC(=O)N2C2CCCC2)cc1OC (centres undefined) | 10 | 2.1 | -1 | 0.71 | 3.8 | · | -3.6 |
| CCOc1ccc(N2C(=O)CC(SCC(=O)O)C2=O)cc1 (centres undefined) | -2 | 0.2 | -4 | · | · | i | 0.2 |
| Cc1cc(-c2ccc(C)c(S(=O)(=O)NCCCN3CCCCCC3)c2)on1 | -6 | 4.4 | -6 | 0.68 | -1.9 | i | -12 |
| Cn1c(CC2C(=O)Nc3ccc(Br)cc32)nc2ccccc2c1=O (centres undefined) | 15 | -4.4 | -28 | 0.62 | -1.2 | i | 2.0 |
| NC(=O)COC(=O)C1c2ccccc2Oc2ccccc21 | -441 | -0.8 | -6 | 0.72 | 4.3 | i | 7.0 |
| CCCC(=O)Nc1cc2c3c(c1)CC(=O)N3CCC2 | -5 | 1.2 | -9 | 0.69 | -0.1 | i | -2.6 |
| C[C@@H]1CCC[C@@]2(O[C@@H](CCO)C[C@@H](O)[C@@H]2O)O1 | 4 | 1.6 | -7 | · | 2.5 | i | -4.4 |
| Cn1c(=O)c2c(nc(-n3ccnc3)n2Cc2ccccc2)n(C)c1=O | 4 | 0.1 | -6 | 0.7 | 5.2 | · | -3.4 |
| COC(=O)c1ccc(C)c(NC(=O)CCn2[nH]c(=O)ccc2=O)c1 | -3 | -2.7 | · | 0.69 | 3.2 | i | · |
| COCCNC(=O)CN1c2ccccc2CC1C (centres undefined) | 11 | -2.0 | 65 | 0.73 | 2.1 | · | 2.9 |
| CCC(C)(C)NC(=O)Cn1c(=O)oc2cc(S(=O)(=O)N3CC(C)CC(C)C3)ccc21 (centres undefined) | -5 | -1.9 | -2 | 0.73 | -0.9 | i | 0.0 |
| O=C(COC(=O)c1ccc(NS(=O)(=O)c2cccs2)cc1O)NC1CCCCC1 | 15 | 1.0 | 7 | 0.67 | 2.9 | i | 1.1 |
| COc1cccc(C(C)NC(=O)C2CCCO2)c1 (centres undefined) | -8 | -1.9 | -5 | 0.62 | 3.2 | i | 2.1 |
| COc1cc(N/C=C(\C(C)=O)c2ccccc2)cc(OC)c1 | 2 | 1.7 | -3 | · | · | · | -3.7 |
| CC(C)C(NC(=O)C1CCCCC1)C(=O)Nc1ccncc1 (centres undefined) | -11 | 3.5 | -10 | 0.72 | 1.7 | · | -3.0 |
| COc1cc[n+]([O-])cc1[N+](=O)[O-] | -6 | -1.5 | · | 0.66 | 2.2 | · | · |
| COc1ccc([N+](=O)[O-])cc1NC(=O)c1ccccc1SC | -2 | -2.3 | -3 | 0.69 | 1.6 | i | -0.6 |
| CC(=O)Nc1ccc(OS(=O)(=O)c2ccc(C)cc2C)cc1 | -8 | -2.9 | -5 | 0.66 | 1.0 | i | -3.2 |
| COc1ccccc1CNC(=O)CN1C(=O)NC2(CCCCCC2)C1=O | 6 | 3.9 | 2 | 0.69 | 3.2 | i | 1.8 |
| COC(=O)CSc1nc(C(C)C)nc2ccccc12 | -2 | -2.8 | -11 | 0.65 | 1.9 | · | 4.4 |
| CC(NC(=O)Nc1ccc(Cl)cc1)c1ccccc1 (centres undefined) | 0 | 1.9 | 0 | 0.6 | 4.8 | i | -0.7 |
| CCOC(=O)c1cc(C)n(S(=O)(=O)c2ccc(C)cc2)c1C | 9 | 2.9 | -8 | 0.69 | 0.3 | · | 0.5 |
| CC1=CC(C)(C)N(C(=O)c2ccccc2)c2ccc(C)cc21 | -2 | 1.0 | · | 0.67 | 6.7 | · | · |
| CC1(C)CCCN(Cc2c(O)ccc3c(=O)c(-c4nc5ccccc5s4)c(N)oc23)C1 | 7 | 6.1 | · | 0.72 | -202 | · | 4.0 |
| O=[N+]([O-])c1cc(S(=O)(=O)N2CCCCCC2)ccc1F | 50* | -2.8 | 97* | 0.66 | 7.6 | i | 9.8 |
| O=C(COC(=O)c1n[nH]c2ccccc12)c1ccc(F)c(F)c1 | 7 | 5.0 | 5 | 0.67 | -1.7 | i | -1.1 |
| COc1ccc(C(=O)N2CCC(C(=O)Nc3ccc4c(c3)OCO4)CC2)cc1 | 2 | -0.1 | -2 | 0.71 | 0.7 | i | 0.9 |
| O=C(C/C=N/OCc1ccc(Cl)cc1Cl)c1ccc(Cl)cc1 | 1 | -0.1 | 0 | · | · | · | 2.4 |
| COCCN(C(=O)CSc1nnc(-c2ccccc2F)n1N)c1c(N)n(Cc2ccccc2)c(=O)[nH]c1=O | -16 | 0.6 | 10 | 0.71 | 2.2 | i | 0.9 |
| COc1ccccc1C(=O)N/C(=C\c1ccccc1)C(=O)NC(C)C(=O)O (centres undefined) | -4 | 2.3 | -3 | · | · | i | -2.1 |
| N/C(Cc1ccc([N+](=O)[O-])cc1)=N\OC(=O)C1CCCCC1 | 10 | 1.1 | · | · | · | i | 0.3 |
| CCN(CC)c1ccc(/C=C2/C(=O)c3ccc(C(=O)O)cc3C2=O)cc1 | -68 | 82* | 98* | 0.66 | 17 | i | -7.9 |

Next part:
| SMILES | Beta2AR agonist | HNF4A DNA FP | ALR H2O2 inh | Ecoli growth | UCH37 inh | FGF22 binding | LANA-H2A inh |
| --- | --- | --- | --- | --- | --- | --- | --- |
| O=[N+]([O-])c1ccc(N/N=C/c2cccc(O)c2O)cc1 | 19 | 21 | 6 | · | · | i | -0.2 |
| COc1ccc(NC(=O)C(c2ccc(C)cc2)N(C)C(=O)c2ccc(=O)[nH]c2)cc1 (centres undefined) | 0 | -5.5 | · | 0.66 | 0.7 | · | 3.2 |
| N#Cc1cccnc1N1CCN(C(=O)c2ccc3c(c2)S(=O)(=O)c2ccccc2C3=O)CC1 | -16 | -2.2 | -22 | 0.68 | 4.1 | i | 0.6 |
| Clc1cccc2c3c([nH]c12)CCNC3 | -4 | 1.8 | -10 | 0.68 | 3.6 | i | 0.0 |
| O=C(Cn1cncn1)NCc1cccc(C(F)(F)F)c1 | 2 | 1.8 | -15 | 0.69 | -0.5 | i | -1.2 |
| NC1=NS(=O)(=O)NC1c1ccc(Cl)cc1 (centres undefined) | 14 | 0.9 | -4 | 0.63 | 0.9 | · | 2.4 |
| CC(O)c1cccc(NC(=O)CC(c2ccccc2)c2ccccc2)c1 (centres undefined) | -1 | 0.1 | -1 | 0.68 | 3.6 | i | 1.7 |
| CCCC(=O)N1CCN(c2ccc(NC(=O)c3ccc([N+](=O)[O-])o3)cc2)CC1 | 17 | 2.0 | · | 0.63 | 8.3 | i | · |

Exported as labelled records: entries from further up
CC(=O)Nc1ccc(OS(=O)(=O)c2ccc(C)cc2C)cc1
  Beta2AR agonist = -8; HNF4A DNA FP = -2.9; ALR H2O2 inh = -5; Ecoli growth = 0.66; UCH37 inh = 1.0; FGF22 binding = i; LANA-H2A inh = -3.2

COc1ccccc1CNC(=O)CN1C(=O)NC2(CCCCCC2)C1=O
  Beta2AR agonist = 6; HNF4A DNA FP = 3.9; ALR H2O2 inh = 2; Ecoli growth = 0.69; UCH37 inh = 3.2; FGF22 binding = i; LANA-H2A inh = 1.8

COC(=O)CSc1nc(C(C)C)nc2ccccc12
  Beta2AR agonist = -2; HNF4A DNA FP = -2.8; ALR H2O2 inh = -11; Ecoli growth = 0.65; UCH37 inh = 1.9; FGF22 binding = ·; LANA-H2A inh = 4.4

CC(NC(=O)Nc1ccc(Cl)cc1)c1ccccc1 (centres undefined)
  Beta2AR agonist = 0; HNF4A DNA FP = 1.9; ALR H2O2 inh = 0; Ecoli growth = 0.6; UCH37 inh = 4.8; FGF22 binding = i; LANA-H2A inh = -0.7

Structures above printed as active in Beta2AR agonist.
Molecule | Beta2AR agonist | HNF4A DNA FP | ALR H2O2 inh | UCH37 inh | FGF22 binding | LANA-H2A inh
O=[N+]([O-])c1cc(S(=O)(=O)N2CCCCCC2)ccc1F | 50* | -2.8 | 97* | 7.6 | i | 9.8
